Bioassay records deposited in PubChem BioAssay by several laboratories.
Ecoli rRNA inh = reduced GFP signal of wild-type E. coli, primary screen, bacterial rRNA inhibitor project, GFP/RFP fluorescence, OD600, single point. E. coli WT GFP vs humanized-ribosome RFP mutants, 24 h; hits give low values; DMSO median 0, no signal -100. GFP signal change (wild-type ribosome), % (no concentration beside the values). 350,000 tested, 1.6% active;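 active = significant combined selectivity score with lowered wild-type GFP, culture density cut under 30%, mutant RFP and density less affected; inactive = any of these conditions unmet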; also: one replicate is shown; some compounds called inactive have numbers as strong as hits
Calb FLC = C. albicans growth inhibition with fluconazole, primary screen, CaCi-2 strain, Alamar Blue fluorescence; C. albicans CaCi-2 (fluconazole-resistant clinical isolate) + fluconazole, 48 h; growth inhibition, % (no concentration beside the values); 300,000 tested, 0.57% active;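 active = most replicates above 75%; inconclusive = exactly half above 75%; inactive = most below 75%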;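 also: all wells also contain fluconazole at 8 µg/ml as a sub-toxic cotreatment; 0% = median of DMSO wells and 100% = median of geldanamycin control wells; wells of about 8 µL received 7.5 nL stock; the first replicate is given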
ALR H2O2 inh = inhibitors of human ALR sulfhydryl oxidase, primary screen, biochemical, H2O2 detection, HRP-luminol luminescence, single point; FAD-linked sulfhydryl oxidase ALR (Homo sapiens), P55789; purified ALR, DTT oxidation; inhibition, % (test concentration not listed); 290,000 tested, 3.8% active; AID 485317, 2010;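 active = mean and each replicate at 75% or more; inconclusive = only one of the two met; inactive = neither met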;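 also: stock transfer was 7.5 nL into about 7.5 µL; 0% = neutral wells and 100% = wells with inactivated enzyme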
Target sequence (P55789 whole entry, looked up): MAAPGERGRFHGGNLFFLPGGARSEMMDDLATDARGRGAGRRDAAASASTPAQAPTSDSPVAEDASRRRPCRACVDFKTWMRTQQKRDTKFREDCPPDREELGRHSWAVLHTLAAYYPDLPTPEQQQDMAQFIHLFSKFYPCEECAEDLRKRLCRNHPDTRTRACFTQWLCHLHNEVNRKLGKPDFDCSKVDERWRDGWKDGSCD
Beta2AR agonist = beta2AR agonists driving receptor internalization, primary screen, cell-based, FAP fluorogen, flow cytometry. Beta-2 adrenergic receptor (Homo sapiens), P07550. Am2.2-beta2AR cells; reference of the scale not given here. response, % (test concentration not listed). 340,000 tested, 0.43% active. AID 504454, 2011;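 active = response above a set limit, near 3 SD of response in nonfluorescent compounds, cut at about 42% in these data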;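 also: stock transfer was 100 nL into about 11 µL; a reference agonist was the positive control; negative values mostly stem from fluorescent compounds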
Target sequence (P07550 whole entry, looked up): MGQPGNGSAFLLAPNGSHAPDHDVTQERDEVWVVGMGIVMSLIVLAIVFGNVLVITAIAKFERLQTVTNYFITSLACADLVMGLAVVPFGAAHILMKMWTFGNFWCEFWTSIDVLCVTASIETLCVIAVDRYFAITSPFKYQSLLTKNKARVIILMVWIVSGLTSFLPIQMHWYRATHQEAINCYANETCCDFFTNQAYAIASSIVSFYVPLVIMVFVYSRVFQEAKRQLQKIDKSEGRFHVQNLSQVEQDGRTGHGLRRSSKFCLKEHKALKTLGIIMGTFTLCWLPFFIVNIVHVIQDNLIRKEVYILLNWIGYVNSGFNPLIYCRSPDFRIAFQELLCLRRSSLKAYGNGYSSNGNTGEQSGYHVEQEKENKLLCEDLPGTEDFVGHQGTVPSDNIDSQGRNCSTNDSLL
A1 inh = caspase 3/7 activation in MEF A1-2A-BIM cells, primary screen, A1 inhibitor project, cell-based, luminescence, HTS. AID 2462, 2010. Caspase-Glo 3/7 luminescence, 3 h; percent of clofoctol response, vehicle zero. caspase activation, % (test concentration not listed). 330,000 tested, 0.066% active;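 active = over half of replicate activation scores above 10%, or exactly half above 10 with the replicate mean above 10; inconclusive = replicate mean below 10 yet half the replicates above 10; inactive = over half of replicates below 10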;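 also: wells of about 30 µL received 50 nL stock; many hits fall short of the cut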
T cruzi repl = inhibitors of intracellular T. cruzi growth, primary screen, luminescence, NIH3T3 host cells; T. cruzi beta-gal in NIH3T3, 90 h; inhibition, % (concentration not given with the values); 300,000 tested, 1.4% active; AID 1885, 2009;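 active = mean inhibition across valid replicates above about 55%, limit read from the data; inconclusive = mean below that limit but half or more replicates reach it; inactive = mean below it, under half of replicates reach it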;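 also: signal also drops with host cell toxicity which is not excluded here; 0% = plate median of DMSO wells and 100% = zero luminescence signal; higher percent means less beta-gal luminescence so fewer parasites; stock transfer was 50 nL into about 50 µL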
LANA-H2B inh = blockers of LANA interaction with H2A/H2B – biochemical, FP readout, HTS, primary screen | Protein LANA1 (Human herpesvirus 8 type P (isolate GK18)), Q9QR71 | cell-free LANA-H2A/H2B peptide, fluorescence polarization | inhibition, % (test concentration not listed) | 320,000 tested, 0.6% active | AID 2629, 2010; in the data active = inhibition mostly above about 10%, no sharp cut-off; inactive = mostly below about 6.7%;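 also: stock transfer was 7.5 nL into about 10 µL; 0% = median of vehicle wells and 100% = median of positive control wells; one replicate is shown; the record names a cut of 25% in any replicate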
Beta cell apopt = inhibitors of cytokine-induced beta cell apoptosis, primary screen, luminescence; INS-1E cytokine-induced death, ATP luminescence, 48 h; percent of positive-control rescue, neutral wells zero; protection from apoptosis, % (concentration not given with the values); 300,000 tested, 0.8% active; AID 435005, 2010;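 active = all replicates at 75% or more, or half of them and the mean; inconclusive = half reach 75% but not the mean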;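 also: 0% = cytokine-treated negative control wells and 100% = positive control rescue; higher means more ATP so stronger rescue from cytokine killing; wells of about 40 µL received 100 nL stock; the first replicate is given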
Ecoli rRNA inh OD600 = second read-out of Ecoli rRNA inh, no call of its own (marks repeat the call); OD600 change, %; measured here: OD600 growth;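 optical density of the mix in the first replicate; 0 = DMSO median and -100 = no signal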
Ecoli rRNA inh RFP = recorded beside Ecoli rRNA inh, whose call it bears; RFP signal change, %; measured here: RFP humanized mutant strains;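 first replicate; 0 = DMSO median and -100 = no signal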
An asterisk follows results filed as active; ? = inconclusive; · = not tested or not shown.

SMILES	Ecoli rRNA inh	Ecoli rRNA inh OD600	Ecoli rRNA inh RFP	Calb FLC	ALR H2O2 inh	Beta2AR agonist	A1 inh	T cruzi repl	LANA-H2B inh	Beta cell apopt
CC(=O)N1CCC(=O)Nc2ccc([N+](=O)[O-])cc21	13	14	-0.6	-6	-34	6	0.7	-8	0.0	-4
Cc1c(NC(=O)COC(=O)c2c3c(nc4ccccc24)CCCC3)c(=O)n(-c2ccccc2)n1C	10	12	-1.1	10	-1	-8	0.4	2	-5.1	-14
COc1ccc(C(=O)NC(C)C2CC3CCC2C3)c(OC)c1 (configuration not stated)	-7	-7	0.2	8	1	-2	0.2	4	2.0	0
CCOC(=O)c1ccc(S(=O)(=O)N2CCC(C(=O)NCc3ccccc3OC)CC2)cc1	·	·	·	·	-1	16	0.7	·	5.5	3
C/C(=N\NC(=O)c1ccc(Br)o1)c1cc2c(cc1NC(=O)CCC(=O)O)OCO2	10	3	0.9	-6	-7	-5	-0.3	·	1.9	-5
COc1ccc(C(OCC(O)CN2CCC(O)CC2)c2ccc(OC)cc2)cc1 (configuration not stated)	6	10	0.7	4	-2	2	0.7	3	0.0	0
C=CCS/C(N)=N\N=C\c1c(O)ccc2ccccc12	-32	-28	-0.6	11	0	1	-2.2	-9	6.4	35
COc1ccc(OCCOC(=O)c2cccs2)cc1	·	·	·	?	-7	-8	-3.0	-3	-3.2	-5
CN(C)c1cc(Nc2ccc(O)cc2)c([N+](=O)[O-])c2nonc12	9	8	-5.8	-6	8	-2	0.3	-8	0.5	-3
COC(=O)c1sccc1NC(=O)c1cc(C)on1	7	12	-1.7	?	96*	3	-1.2	6	1.4	4
O=C1CC(NS(=O)(=O)c2ccc(F)cc2)CN1c1ccc2c(c1)OCCO2 (configuration not stated)	4	15	0.8	3	-3	-6	0.2	1	0.9	·
O=c1[nH]c2ccc(Cl)cc2c(-c2ccccc2)c1CN1CCOCC1	·	·	·	·	29	-1	0.4	·	8.2	-14
Fc1ccc(CN2CCCCCCC2)c(F)c1	·	·	·	·	7	-1	0.4	·	-0.8	-1
Cc1cc(C)n(-c2ccc(OCC(=O)O)nn2)n1	·	·	·	-21	-2	0	0.4	-37	4.5	-6
C/C(=N\OCC(=O)OCC(=O)N(Cc1ccccc1)C(C)(C)C)c1ccc2c(c1)OCO2	2	0	-1.7	-1	·	-2	-0.2	-13	-3.3	-3
CC(Oc1ccc(F)cc1)C(=O)N1CCN(c2ncccn2)CC1 (configuration not stated)	5	4	0.1	4	-1	0	-0.5	-11	-6.0	6
Nc1ncnc2c1ncn2[C@@H]1O[C@H](CN=C2NS(=O)(=O)c3ccccc32)[C@@H](O)[C@H]1O	7	14	-0.9	·	·	-4	0.6	·	-0.7	-9
COC(=O)c1cc(C(=O)Cc2ccccc2)c[nH]1	-22*	-15*	-4.7*	-1	-11	·	0.9	-10	1.7	-4
CCOC(=O)c1c(NC(=O)C(C)OC(=O)c2ccc(NC(=O)CC#N)cc2)sc2c1CCCC2 (configuration not stated)	2	3	-0.7	3	-1	27	-0.5	5	-2.2	6
O=C(CN1CCC(NC(=O)c2cccc(F)c2)CC1)NCc1cccs1	21	10	3.0	8	0	15	-0.5	4	9.4	-8
CN(C)c1ccc(P(=O)(OCc2ccccc2)C(O)c2ccccc2F)cc1 (configuration not stated)	8	0	0.3	-5	11	1	0.5	20	-0.6	-1
CCCCCN(C(=O)CCC(=O)OCc1ccc(C(C)(C)C)cc1)c1c(N)n(CCCC)c(=O)[nH]c1=O	17	21	1.7	22	0	5	-0.7	27	3.6	25
O=C1CC(NC2CCN(C(=O)c3cccc(F)c3)CC2)C(=O)N1 (configuration not stated)	6	6	-0.8	-12	-4	-6	0.5	-5	1.7	0
Nc1c(N(CCCO)C(=O)C2CCCCC2)c(=O)[nH]c(=O)n1Cc1ccccc1	13	15	-1.6	·	-6	-1	-1.4	·	1.8	-6
COC(=O)c1c(N)c2ccccc2[nH]c1=O	·	·	·	5	-7	3	1.2	-4	2.9	-1
COc1ccc(-c2nc(CC(=O)O)cs2)cc1OC	·	·	·	2	1	·	-1.0	5	-4.3	3
CC(C)c1cc(C(=O)Nc2cc(Br)ccc2O)no1	16	17	5.6	-16	3	2	-0.1	-6	-0.6	8
COc1ccc(CNc2nc(-c3cccnc3)nn2S(C)(=O)=O)cc1	2	0	0.7	2	-1	-5	0.1	-1	0.1	-2
CCOC(=O)c1ccccc1NC(=O)COC(=O)CC1CCCCC1	-8	2	3.8	-10	5	5	-0.6	-11	-4.3	-7
CC(C)OC(=O)c1cn(-c2ccccc2)nc1-c1ccco1	·	·	·	-2	14	-1	0.8	56*	-473	0
O=C(O)C1C2C=CC(O2)C1C(=O)Nc1ccc(S(=O)(=O)N2CCc3ccccc32)cc1 (configuration not stated)	·	·	·	3	10	-8	-0.5	-6	-3.9	-8
COC(=O)Cn1c2c(c3cc(C)ccc31)CCCC2	·	·	·	0	-9	-6	0.5	-11	0.9	-5
CN(c1ccc(C(=O)NC2CCCC2)cc1)S(=O)(=O)c1ccc(Cl)cc1	7	4	0.0	0	-5	-10	-0.8	3	-3.5	13
Cc1c(C(=O)O)cccc1-c1ccc(/C=C2\SC(=O)NC2=O)o1	-3	-10	5.9	-3	0	-6	-10	14	-2.1	1
CN(C)c1cc[nH]c(=O)c1C#N	·	·	·	4	-7	7	-0.5	4	1.1	0
CCOc1c(C(N)=O)c(-c2ccccc2)c2c(=O)[nH]c3ccccc3n12	·	·	·	10	0	-2	-0.5	21	2.3	7
CC1(C)C2(C#N)C(N)=NC3(OCCO3)C12C#N (configuration not stated)	·	·	·	-4	100*	7	1.2	·	-0.7	-1
O=C(CCc1nnc2ccc(N3CCC4(CC3)OCCO4)nn12)Nc1ccc(F)cc1	5	9	0.5	-3	-5	3	0.9	0	-0.4	-2
O=C(Cn1cnc2c(nnn2Cc2ccc(Cl)cc2)c1=O)OCc1ccccc1	9	4	-6.6	-5	-2	21	-0.2	-3	-2.4	1
COC(=O)NC1CSCC1OC(=O)CN1C(=O)c2ccccc2C1=O (configuration not stated)	·	·	·	-7	-12	4	-1.1	-8	1.7	-3
O=C(O)c1ccc(CSc2ncn[nH]2)cc1	7	10	3.8	13	-9	5	-0.1	-23	2.8	-1
C[C@@H](O)[C@H]1C(=O)N2C(C(=O)O)=C(S[C@@H]3CN[C@H](C(=O)N(C)C)C3)[C@H](C)[C@H]12	·	·	·	·	-4	·	0.8	3	6.1	-4
CN1C(=O)CC(N2CCN(C(=O)c3ccccc3)CC2)C1=O (configuration not stated)	·	·	·	-2	-8	1	-0.3	-3	-1.0	-2
CN1CCN(C2CC(=O)N(c3ccc4c(c3)OCCO4)C2=O)CC1 (configuration not stated)	·	·	·	22	-4	-4	-0.3	10	0.8	0
OCC1(CCOc2ccccc2)CCN(Cc2ccc3cccc(F)c3n2)CC1	0	-5	2.1	-42	2	-1	-0.6	-22	2.3	-4
COc1ccc(C)cc1NC(=O)CSc1nc2ccccc2nc1N1CCCC1	-2	-6	1.7	-13	-38	0	0.3	2	1.8	0
COc1ccc(N(CC(=O)Nc2ccc3c(c2)OCO3)S(C)(=O)=O)c(OC)c1	·	·	·	28	-9	6	0.7	-3	2.0	-5
CCS(=O)(=O)c1ccc(O)c(NC(=O)Nc2ccccc2)c1	·	·	·	0	1	2	-0.8	5	6.3	3
O=C(N/N=C/c1ccccn1)NC12CC3CC(CC(C3)C1)C2	2	-1	0.6	6	-6	-20	-1.7	5	-0.5	4
Cc1nc(C2CCCCC2)c(-c2ccccc2)c(N2CCOC2=O)c1C	-33	-53	-4.8	9	-5	-2	-0.3	14	4.0	·
CCn1c(SCC(=O)NC(C)(C)C)nnc1-c1ccccn1	·	·	·	-7	-4	5	0.2	-5	-3.9	-16
COc1cc(C2C(C#N)=C(N)Oc3c2ccc2ccccc32)ccc1OCC(=O)Nc1ccc(C)cc1 (configuration not stated)	·	·	·	4	-7	2	-0.2	0	-1.1	0
O=C(c1ccccn1)N1CCN(S(=O)(=O)c2ccc(F)cc2)CC1	16	2	2.1	7	-6	-5	0.0	-11	-1.0	-9
CSCCC(NC(=O)C1CCC(C)CC1)C(=O)Nc1ccc(NC(C)=O)cc1 (configuration not stated)	3	7	0.2	2	-10	-5	-0.5	-7	0.3	4
CN1c2ccccc2C(C)(C)C12C=Nc1c(ccc3ccccc13)O2 (configuration not stated)	·	·	·	38	-34	-4	0.1	16	0.5	1
CC(CN1CCN(C)CC1)OC(=O)c1cccc(Cl)c1 (configuration not stated)	10	12	-7.4	-3	-4	-4	0.2	42	-3.4	6
CCC(C)(NC(=O)c1ccccn1)C(=O)NC1CCCCC1 (configuration not stated)	·	·	·	-3	0	4	-0.5	-4	3.6	-5
COc1ccc(OC)c(CNC(=O)c2cc(=O)[nH]c3ccc(S(=O)(=O)N4CCCC4)cc23)c1	21	21	0.6	7	-2	·	-1.1	-2	-3.3	-1
O=c1c2ccccc2nc(-c2ccccc2)n1Cc1ccc(Cl)cc1	·	·	·	37	-1	-1	-0.3	8	7.7	1
COc1ccc(CN2C(=O)[C@@H]3Cc4c([nH]c5ccccc45)C(C)(C)N3C2=O)cc1	-13	-41	5.2	25	1	10	2.0	9	2.7	7

(more compounds)
SMILES	Ecoli rRNA inh	Ecoli rRNA inh OD600	Ecoli rRNA inh RFP	Calb FLC	ALR H2O2 inh	Beta2AR agonist	A1 inh	T cruzi repl	LANA-H2B inh	Beta cell apopt
Cc1ccc(S(=O)(=O)N2CCC(C(=O)NCCN3CCOCC3)CC2)cc1C	22	19	3.1	20	0	-7	0.3	5	5.6	-2
COc1ccc(NC(=O)c2ccc3c(c2)OCCO3)cc1OC	6	5	-1.3	5	-10	5	-5.4	-10	3.2	9
COc1ccc(C)cc1NC(=O)c1ccc2c(c1)C(=O)N(Cc1ccncc1)C2=O	23	17	3.3	·	-3	-2	1.7	·	-0.2	1
C/C=C/c1ccc(OCC(=O)Nc2ccncc2)c(OC)c1	-3	-15	2.4	-3	0	8	-1.9	-10	-5.4	-3

This is a subset; the hit share may differ from the screen's.
